Source: PubChem BioAssay
VDR inh: Inhibitors of the vitamin D receptor (VDR): qHTS | AID 504847, 2011 | Vitamin D3 receptor (Homo sapiens), P11473 | Potency, µM, for inactives: max response, negative = inhibition, hits mostly inhibitors | VDR-SRC2-3 peptide fluorescence polarization, 2 h | 0.93% of 400,000 active; active means well fitted inhibition curve with a large enough effect; inconclusive means small, poorly fitted or top-dose-only effect, or another doubt; inactive means no such curve, though single readings can be large or run the other way; further: series mostly up to about 120 µM
Target sequence (P11473 whole entry, looked up): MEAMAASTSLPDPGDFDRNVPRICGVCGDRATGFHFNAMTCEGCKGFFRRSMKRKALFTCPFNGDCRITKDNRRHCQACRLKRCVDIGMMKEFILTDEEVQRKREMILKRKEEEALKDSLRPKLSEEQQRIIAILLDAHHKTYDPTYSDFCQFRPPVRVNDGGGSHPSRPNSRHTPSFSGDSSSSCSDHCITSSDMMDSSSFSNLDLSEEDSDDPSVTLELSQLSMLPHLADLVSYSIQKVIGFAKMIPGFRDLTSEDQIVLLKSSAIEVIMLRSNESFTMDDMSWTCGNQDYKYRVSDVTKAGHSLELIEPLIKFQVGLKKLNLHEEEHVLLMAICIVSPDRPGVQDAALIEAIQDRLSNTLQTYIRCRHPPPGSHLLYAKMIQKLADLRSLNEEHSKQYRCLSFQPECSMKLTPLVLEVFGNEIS
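The screen uses fluorescence polarization to detect compounds that interfere with recruitment of the SRC2-3 coactivator peptide to VDR; plates are read after 2 h at room temperature.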
An asterisk follows results filed as active; ? = inconclusive; & = joins results of further samples; [ ] = another dose, or the depositor's remark. On the % scale 0 is the no-effect control and ±100 the full control effect; potency means the concentration at half of the fitted maximal effect. Some of the compounds tested (hit frequency here may not be typical).

SMILES	VDR inh
C/C(=N\Nc1cc(C(F)(F)F)ccc1Cl)c1ccccc1O	-21.7%
Cc1ccc(-n2cc(CN3CCN(c4ccccn4)CC3)c(-c3ccc(F)cc3)n2)cc1	-1.1%
CC1CC(C)CN(S(=O)(=O)c2ccc3c(c2)n(C)c(=O)c(=O)n3C)C1 (stereo not drawn)	-2.7%
CCC(=O)N1c2ccc(S(=O)(=O)N3CCCCCC3)cc2CC1C (stereo not drawn)	-1.1%
CC(C)(C)c1ccc(C(=O)Nc2ccc(NC(=O)c3ccc(Cl)c(Cl)c3)cc2)cc1	-16.2%
CC(C)CN1CCN(Cc2cc3ccccc3[nH]2)CC1CCO (stereo not drawn)	-6.0%
Cc1ccc(C)c(CN2C(=O)c3ccccc3S(=O)(=O)c3ccc(C(=O)N4CCN(C)CC4)cc32)c1	-0.1%&-8.8%
Fc1cccc(Cl)c1CNn1cn[nH]c1=S	0.4%
CC(C(=O)OCC(=O)c1ccc(Br)cc1)N1C(=O)C2C3C=CC(C3)C2C1=O (stereo not drawn)	1.0%
O=C(CSc1nc2sccc2c(=O)[nH]1)N1CCN(c2ccccc2)CC1	29.8%
COc1ccc(-c2[nH]c3ccccc3c2SCCNC(=O)c2ccccc2)cc1	9.1%
CN(C)C(=O)CN1CCN(C(=O)CCl)CC1	-7.6%
Cc1cccc(NC(=O)Cn2c(SCC(=O)NCc3ccccc3)nc3ccccc32)c1C	-6.1%
Cc1ccc(C2=NCCn3nc4cc([N+](=O)[O-])ccc4c32)cc1	-2.3%
Cc1ccccc1Cn1c(=O)sc2ccccc2c1=O	-20.5%
COc1cccc(C(=O)OCC(=O)c2ccc(Br)s2)c1OC	2.6%
CC(=O)C1=C(C)NC(C)=C(C(C)=O)C1c1ccccc1	-15.9%
COc1cc(-c2nc(C(=O)NC3CCCCC3)cc3c2[nH]c2ccccc23)cc(OC)c1OC	8.6%
CC(=O)c1ccc(N(CC(=O)NCCc2ccccc2)C(=O)c2csnn2)cc1	-3.4%
Cc1cc(OCC(O)CN2C(C)CCCC2C)ccc1C(C)C (stereo not drawn)	5.3%
O=C(Cc1coc(-c2ccc(F)cc2)n1)NCc1ccccc1	-0.9%
CCc1nn(CC(=O)NCCN2CCN(C)CC2)c(=O)c2cc3occc3n12	-6.4%
COc1ccc(/C=C(/C#N)c2nc(-c3ccc(Br)cc3)cs2)cc1	-6.0%
O=C(NCCCN1CCCC1=O)Nc1cc(Cl)ccc1Cl	10.6%
CCCN(CCC)CC(O)Cn1cc(/C=C/C(=O)c2ccc(C)cc2)c2ccccc21 (stereo not drawn)	-1.3%
Continued:
SMILES	VDR inh
COc1ccc2c(=O)c(-c3ccc4c(c3)OCO4)coc2c1	-1.2%&-7.0%
COc1ccccc1N1CCN(C(=O)c2oc3ccccc3c2C)CC1	7.2%
CCC1CCCCN1C(=O)CCc1nnc(C2CCCCC2)o1 (stereo not drawn)	6.2%
CCCCN(C)CCCNC(=O)C1CCN(c2nc3ccc(CC)cc3s2)CC1	-23.2%
CCOc1ccc(CCNc2ncnc3onc(-c4ccc(F)cc4)c23)cc1OCC	5.0%
O=C(NCc1ccccc1Cl)c1cccc(NC2=NC3CS(=O)(=O)CC3S2)c1 (stereo not drawn)	-5.4%
Clc1ccc(SCc2nc3ccccc3[nH]2)cc1	-13.4%
CN(C(=O)c1cccc(NC(=O)Cc2ccc(NC(=O)C3CCN(C(=O)C4CCC4)CC3)cc2)c1)C1CCC1	-23.1%
O=S(=O)(NCc1cccs1)NCc1ccccc1F	0.3%
Cn1nc(C(=O)NCc2ccc(F)cc2)c2ccccc2c1=O	5.5%
O=C(C[C@@H]1C/C=C\C[C@H](Cc2ccc(F)cc2)C(=O)OC[C@@H](Cc2c[nH]c3ccccc23)NC1=O)NCCO	1.5%
CCc1nc2ccccc2nc1N1CCN(S(=O)(=O)c2c(C)cc(Cl)cc2C)CC1	-10.8%
N#Cc1c(NC(=O)C2CC=CCC2C(=O)O)sc2c1CCCCCC2 (stereo not drawn)	-2.8%
COc1ccc(C(=O)Nc2cccc(/C(C)=N/NC(=O)c3ccc([N+](=O)[O-])cc3)c2)cc1OC	6.4%
CC(C)CC(NC(=O)C1CCCCC1)C(=O)NCc1ccccn1 (stereo not drawn)	-3.4%
Cn1cc(S(=O)(=O)N2CCc3ccccc32)cc1C(=O)Nc1ccc(Cl)cc1	-3.9%
CCOC(=O)c1c(NC(=O)c2ccccc2)sc2c(O)c(CN(CC)CC)ccc12	7.9%
Cc1ccc(C(=O)N/C(=C\c2cccc([N+](=O)[O-])c2)C(=O)NC(Cc2ccccc2)C(=O)O)cc1 (stereo not drawn)	0.1%
CC(=O)N1C(C)(C)CC(=NOS(=O)(=O)c2ccccc2)CC1(C)C	17.1%
Cc1cc(C)nc(N2CCCC(C(=O)NC3CC3)C2)n1 (stereo not drawn)	-2.4%
COc1nnc(-c2ccc(C)c(S(=O)(=O)NC(C)(C)CO)c2)c2ccccc12	2.9%
Cc1nc(-c2ccccc2)sc1-c1nc(-c2ccncc2)ncc1S(=O)(=O)c1ccccc1	-18.5%
CCC(=O)Nc1ccc(S(=O)(=O)N2CCC(c3nc4ccccc4[nH]3)CC2)cc1	-10.0%
CCCn1nnc(NC(=O)COc2ccc(CC)cc2)n1	13.0%
CC(COc1ccc(/C=C/c2ccccc2)cc1)[N+](C)(C)C (stereo not drawn)	5.9%&-3.6%
Additional structures follow:
SMILES	VDR inh
O=C(C1CCCN1S(=O)(=O)c1cccc2nsnc12)N1CCN(c2ccc(F)cc2)CC1 (stereo not drawn)	-8.5%
S=C(NCc1ccccc1)N/N=C/c1cccs1	-20.7%
CCCCn1c(N)c(N(CC(C)C)C(=O)Cc2ccc3c(c2)OCCO3)c(=O)[nH]c1=O	6.9%
Cc1nc(-c2ccc(Cl)cc2)sc1CCNC(=O)C(=O)Nc1ccc2c(c1)OCO2	2.0%
COc1cccc(-c2cn3c(n2)sc2cc(C(=O)NCCc4ccccc4)ccc23)c1	7.5%
CC(C)(C)OC(=O)NCCCC(CCCNC(=O)OC(C)(C)C)C(=O)O	8.4%
Nc1nonc1N/N=C\c1ccccc1	-10.2%
Cc1cn2c(=O)cc(COc3cccc(NC(=O)c4ccc(C(C)(C)C)cc4)c3)nc2s1	-7.1%
COc1ccc(C(=O)NNC(=O)CSc2nnc3ccccn23)cc1OC	1.4%
O=C(CSc1nc(Cc2ccccc2)nc2ccccc12)Nc1nc2c(s1)CCCC2	-6.8%
CS(=O)(=O)c1ccccc1C(=O)Nc1ccccc1Cc1ccccc1	11.7%
COC(=O)c1c(C)[nH]c(C(=O)COC(=O)Cn2cc(C(F)(F)F)ccc2=O)c1C	21.3%
COc1cccc(OC)c1C(=O)Nc1nc(COc2ccccc2)cs1	-4.1%
CCCCN(c1ccc(C(=O)OC)cc1)S(=O)(=O)c1ccccc1	7.1%
CN1OC[C@@H]2CN[C@H](c3cccc(-c4ccccc4)c3)C[C@@H]21	-3.1%
Cc1cc(C)nc(NC(=O)c2cccc(Br)c2)n1	37.8%[activator]
CCOC(=O)Cc1csc(SCC(=O)NC(C)C23CC4CC(CC(C4)C2)C3)n1 (stereo not drawn)	8.5%
CC(C)N(Cc1nccn1C)C(=O)c1ccc2oc(Cc3ccccc3)nc2c1	-10.5%
Cc1nc(C(=O)N(C)C)nn1-c1cc(Cl)cc(Cl)c1	-10.4%
CCOC(=O)c1cc2n(c1/N=C/N(C)C)-c1ccccc1C2=O	0.7%
Cc1ccccc1N1CCN(CCCN2C(=O)C3CCCCN3C2=O)CC1 (stereo not drawn)	-2.9%
COC(=O)c1ccc(NC(=O)CCN2CCN(CCC(=O)Nc3ccc(C(=O)OC)cc3)CC2)cc1	-3.8%
CN(C)S(=O)(=O)c1ccc(NC(=O)c2ccc(Br)o2)cc1	-6.0%
CC(C)Cc1cc(C(=O)NCCc2ccccc2)no1	-7.7%
N#CC1=C(N)n2c(s/c(=C\c3ccco3)c2=O)=C(C#N)C1c1ccco1 (stereo not drawn)	-2.2%
More structures follow:
SMILES	VDR inh
Nc1[nH]c(=O)[nH]c(=O)c1N=Nc1ccccc1Cl	-0.2%
CCc1cccc(C)c1NC(=O)CN1CCN(Cc2ccccc2Cl)S1(=O)=O	7.8%
O=C(c1ccco1)N1CCN(Cc2nnnn2CCc2ccccc2)CC1	6.9%
COC(=O)C1=CN(C2CC2)C=C(C(=O)OC)C1c1ccc(C(F)(F)F)cc1	11.5%
O=C(O)C1CCC(c2ccc(-c3ccccc3)cc2)CC1 (stereo not drawn)	0.2%
CCCC/C=C/C(NC(=O)c1ccc(C(=O)OC)cc1)c1ccccc1 (stereo not drawn)	3.5%
COc1ccccc1CCC(=O)OCc1csc(CC(=O)Nc2ccccc2C)n1	2.9%
CCN(CC)S(=O)(=O)c1ccc(NC(=O)C2CCCO2)cc1 (stereo not drawn)	18.0%
N#CC(NC(=O)OCc1ccccc1)c1ccccc1 (stereo not drawn)	-2.7%
O=C(N/N=C/c1cccnc1)c1ccc(F)cc1	-11.8%
CCC(C)N(C(=O)CN1C(=O)NC2(CCc3ccccc32)C1=O)C1CCS(=O)(=O)C1 (stereo not drawn)	-10.7%
CC1CN(C(=O)c2cc3c(s2)CCC3)CC(C)O1 (stereo not drawn)	4.5%
Cc1ccc(NC(=O)CSc2nc(N)cc(N)n2)cc1S(=O)(=O)N1CCOCC1	1.9%
CC12CCC(=O)N1C(C(=O)Nc1nc3ccc(Cl)cc3s1)CS2 (stereo not drawn)	-2.7%
CCCCn1c(N)c(N(CCC(C)C)C(=O)c2ccc(-c3ccc([N+](=O)[O-])cc3)o2)c(=O)[nH]c1=O	-0.9%
CSCCC(NC(=O)c1ccccc1)C(=O)NNC(=O)c1ccccc1 (stereo not drawn)	-10.5%
Cc1ccc(C(=O)c2cc([N+](=O)[O-])ccc2N2CCOCC2)cc1	-5.0%
CC(=O)Nc1cccc(C(=O)/C=C/c2ccc(C)cc2)c1	25.1µM*
Cc1nc(Cl)sc1C(=O)Nc1ccc(C(F)(F)F)cc1	-23.3%
O=[N+]([O-])c1ccccc1S(=O)(=O)NC1CC2CCC1C2 (stereo not drawn)	-9.5%
Cc1ccc(-n2c(SCC(=O)N3CCCc4ccccc43)nnc2-c2cccnc2)c(C)c1	-5.7%
Cc1ccc(NC(=S)N2CCC(NC(=O)c3cccc(F)c3)CC2)cc1	-18.2%
COc1ccccc1N(CC(=O)N1CCOCC1)S(C)(=O)=O	-16.2%
CC1CC1c1ccc(/C=C(\C#N)C(=O)Nc2ccc(Cl)cc2)o1 (stereo not drawn)	-2.3%
COc1cccc(NC(=O)C2CCCN2C(=O)Nc2ccccc2F)c1 (stereo not drawn)	-6.0%

An excerpt of the results above, as a working copy:
SMILES	VDR inh
COc1ccccc1CCC(=O)OCc1csc(CC(=O)Nc2ccccc2C)n1	2.9%
CCN(CC)S(=O)(=O)c1ccc(NC(=O)C2CCCO2)cc1 (stereo not drawn)	18.0%
N#CC(NC(=O)OCc1ccccc1)c1ccccc1 (stereo not drawn)	-2.7%
O=C(N/N=C/c1cccnc1)c1ccc(F)cc1	-11.8%
CCC(C)N(C(=O)CN1C(=O)NC2(CCc3ccccc32)C1=O)C1CCS(=O)(=O)C1 (stereo not drawn)	-10.7%
CC1CN(C(=O)c2cc3c(s2)CCC3)CC(C)O1 (stereo not drawn)	4.5%
Cc1ccc(NC(=O)CSc2nc(N)cc(N)n2)cc1S(=O)(=O)N1CCOCC1	1.9%
CC12CCC(=O)N1C(C(=O)Nc1nc3ccc(Cl)cc3s1)CS2 (stereo not drawn)	-2.7%
CCCCn1c(N)c(N(CCC(C)C)C(=O)c2ccc(-c3ccc([N+](=O)[O-])cc3)o2)c(=O)[nH]c1=O	-0.9%
CSCCC(NC(=O)c1ccccc1)C(=O)NNC(=O)c1ccccc1 (stereo not drawn)	-10.5%
Cc1ccc(C(=O)c2cc([N+](=O)[O-])ccc2N2CCOCC2)cc1	-5.0%
CC(=O)Nc1cccc(C(=O)/C=C/c2ccc(C)cc2)c1	25.1µM*
Cc1nc(Cl)sc1C(=O)Nc1ccc(C(F)(F)F)cc1	-23.3%
O=[N+]([O-])c1ccccc1S(=O)(=O)NC1CC2CCC1C2 (stereo not drawn)	-9.5%
Cc1ccc(-n2c(SCC(=O)N3CCCc4ccccc43)nnc2-c2cccnc2)c(C)c1	-5.7%
Cc1ccc(NC(=S)N2CCC(NC(=O)c3cccc(F)c3)CC2)cc1	-18.2%
COc1ccccc1N(CC(=O)N1CCOCC1)S(C)(=O)=O	-16.2%
CC1CC1c1ccc(/C=C(\C#N)C(=O)Nc2ccc(Cl)cc2)o1 (stereo not drawn)	-2.3%

Continuation:
SMILES	VDR inh
CC(C)CCNC(=O)c1cccc(Nc2nc3ccccc3n3nnnc23)c1	-13.0%
CC(Oc1ccc(Cl)cc1Cl)C(=O)NNC(=O)c1cccnc1 (stereo not drawn)	-1.8%
COc1cc(OC)nc(/N=C/N(C)C)n1	-6.7%
COc1ccc(/C=C/C(=O)Oc2ccc(C)cc2)cc1	18.4%
COc1ccc(CN2CCNC(=O)C2CC(=O)NCC2CCOCC2)cc1C (stereo not drawn)	9.0%
O=C(O)CSCC(=O)Nc1ccc(-c2nc3ccccc3s2)cc1	?
COc1cc([N+](=O)[O-])cc(/C=N/NC(=O)c2ccc(NC(=O)c3ccc(C)cc3)cc2)c1O	-9.5%
CC/C(=N\NC(N)=O)c1ccc(OC(F)F)cc1	4.6%
Cc1cccnc1NC(=S)NC(=O)c1oc2ccccc2c1C	5.1%
CCn1ccnc1CN(C)Cc1cn(C)nc1-c1ccccc1F	-15.8%
Cc1ccc2cc3cc(C(=O)NCCCN4CCc5ccccc5C4)oc3nc2c1	-2.9%
CCOCCCNC(=O)c1cc2c(=O)n3cccc(C)c3nc2n1C	-11.7%
Cc1ccc(NC(=O)CC2Nc3cccc4cccc(c34)NC2=O)cc1 (stereo not drawn)	-22.0%
Cc1ccc(C(=O)NCC(=O)N2CCN(c3ncccn3)CC2)s1	13.1%
COc1ccc(NC2C[C@H]3CCCC(=O)N4CC[C@@H](C2)[C@@H]34)cc1 (stereo partly drawn)	-10.7%
COc1cccc(C2CN(c3ccc(F)cc3F)N=C2c2cccs2)c1OC (stereo not drawn)	-3.4%
